# Assay outcomes as filed in PubChem.
# Vif TR-FRET = inhibitors of Vif binding to APOBEC3G peptide, primary screen, biochemical, TR-FRET, GST-Vif 1-94, biotin-A3G peptide, dose response retest (AID 1117319); Virion infectivity factor (Human immunodeficiency virus type 1 group M subtype B (isolate …; TR-FRET GST-Vif / biotin-A3G peptide binding; higher % means a stronger effect; test concentration not given here; strong numbers were not always called active; inhibition, %; hits with a dose series show IC50 in µM; hit rate 0.57% among 260,000;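 active = above the screen mean plus three standard deviations and confirmed in dose response; inconclusive = results disagree or hit not tested in dose response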;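 note: Vif residues 1-94 fused to GST binding biotinylated APOBEC3G peptide 110-148; 0% = full assay without inhibitor and 100% = GST in place of GST-Vif; retest series ran down from 100 µM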
# rRNA inh HTS = reduced GFP signal of wild-type E. coli, primary screen, bacterial rRNA inhibitor project, GFP/RFP fluorescence, OD600, single point | GFP signal change (wild-type ribosome), % (concentration not given with the values) | AID 720706, 2013 | E. coli WT GFP vs humanized-ribosome RFP mutants, 24 h; active compounds read low; DMSO median 0, no signal -100 | hit rate 1.6% among 350,000;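 active = significant combined selectivity score with lowered wild-type GFP, culture density cut under 30%, mutant RFP and density less affected; inactive = any of these conditions unmet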; note: one replicate is shown; some compounds called inactive have numbers as strong as hits
# HNF4A DNA FP = change in binding of human HNF4A to DNA, primary screen, biochemical, fluorescence polarization, FITC-DNA | 1 h | activity change, % at 10 µM | hit rate 0.3% among 360,000; in the data active = activity change above about 30%, passing the limit was not always enough;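 note: controls were the assay level and a saturating level of protein; the project sought stronger binding though the title names inhibitors; some compounds called inactive have numbers as strong as hits; positive values seem to mean higher polarization but the record does not say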
# Ecoli growth = E. coli growth inhibition, primary screen, OD600. Escherichia coli growth, 23 h; active compounds read low. OD600 absorbance (test concentration not listed). hit rate 0.21% among 330,000. AID 1053175, 2014;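 active = OD600 absorbance below the run mean of sample wells minus 3.6 SD, in any replicate, cut at about 0.56 in these data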;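 note: stock transfer was 300 nL into about 60 µL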
# AF4-AF9 inh = inhibitors of AF4 peptide binding to AF9, primary screen, biochemical, AlphaScreen, biotin-AF4 peptide, FLAG-AF9, single point; AID 651704, 2012; hit rate 0.47% among 350,000; inhibition, % at 10 µM; Protein AF-9 (Homo sapiens), P42568;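 active = every replicate reaching a set inhibition limit, whatever the replicate mean, cut at about 25% in these data; inconclusive = mean inhibition reaches that limit but some replicates miss it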;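 note: 0% = plate neutral control median and 100% = total signal loss; the record names both 10 and 1 µM as test concentration; the first replicate is given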
# Target sequence (P42568 whole entry, looked up): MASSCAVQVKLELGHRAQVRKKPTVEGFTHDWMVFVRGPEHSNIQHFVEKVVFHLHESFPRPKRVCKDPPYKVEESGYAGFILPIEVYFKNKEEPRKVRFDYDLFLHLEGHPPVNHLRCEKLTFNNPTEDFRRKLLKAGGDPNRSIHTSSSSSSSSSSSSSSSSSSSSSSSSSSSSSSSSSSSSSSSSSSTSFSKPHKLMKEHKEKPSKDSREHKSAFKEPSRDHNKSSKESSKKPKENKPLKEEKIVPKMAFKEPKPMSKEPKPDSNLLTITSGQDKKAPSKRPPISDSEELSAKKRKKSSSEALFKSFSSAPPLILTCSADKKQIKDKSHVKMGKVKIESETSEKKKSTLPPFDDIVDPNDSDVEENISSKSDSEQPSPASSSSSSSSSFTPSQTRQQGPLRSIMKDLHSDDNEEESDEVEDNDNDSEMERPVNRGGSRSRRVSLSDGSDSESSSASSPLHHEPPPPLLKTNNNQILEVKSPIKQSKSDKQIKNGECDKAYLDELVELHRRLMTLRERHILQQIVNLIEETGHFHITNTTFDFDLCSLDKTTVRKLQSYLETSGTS
# ALR inh = inhibitors of human ALR sulfhydryl oxidase, primary screen, biochemical, H2O2 detection, HRP-luminol luminescence, single point. FAD-linked sulfhydryl oxidase ALR (Homo sapiens), P55789. purified ALR, DTT oxidation. inhibition, % (test concentration not listed). hit rate 3.8% among 290,000. AID 485317, 2010;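 active = mean and each replicate at 75% or more; inconclusive = only one of the two met; inactive = neither met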;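 note: stock transfer was 7.5 nL into about 7.5 µL; 0% = neutral wells and 100% = wells with inactivated enzyme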
# Target sequence (P55789 whole entry, looked up): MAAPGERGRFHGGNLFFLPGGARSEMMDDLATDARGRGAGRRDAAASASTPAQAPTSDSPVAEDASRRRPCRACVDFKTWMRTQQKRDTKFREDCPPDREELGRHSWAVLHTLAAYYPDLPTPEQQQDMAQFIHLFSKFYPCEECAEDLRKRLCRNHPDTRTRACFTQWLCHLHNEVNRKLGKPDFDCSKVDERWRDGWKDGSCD
# FGF22 binding = binders of human FGF22 protein, primary screen, FGF22 synaptogenesis inhibitor project, biophysical, thermal shift, single point. recombinant FGF22 thermal shift, SYPRO orange fluorescence; percent of sucrose octasulfate shift, DMSO zero. calls only at 9.99 µM. Fibroblast growth factor 22 (Homo sapiens), Q9HCT0. hit rate 1.5% among 340,000;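 active = melting point raised past a set limit in the mean and every replicate; inconclusive = no clear call; three in four hits are not shown here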
# Target sequence (Q9HCT0 whole entry, looked up): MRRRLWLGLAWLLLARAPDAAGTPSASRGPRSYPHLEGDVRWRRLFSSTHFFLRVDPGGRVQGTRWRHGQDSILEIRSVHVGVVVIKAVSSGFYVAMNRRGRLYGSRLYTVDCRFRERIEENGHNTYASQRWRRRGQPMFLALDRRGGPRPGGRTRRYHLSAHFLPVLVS
# rRNA inh HTS OD600 = recorded beside rRNA inh HTS, whose call it bears; OD600 change, %; measured here: OD600 growth;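 optical density of the mix in the first replicate; 0 = DMSO median and -100 = no signal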
# rRNA inh HTS RFP = second read-out of rRNA inh HTS, no call of its own (marks repeat the call); RFP signal change, %; measured here: RFP humanized mutant strains;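 first replicate; 0 = DMSO median and -100 = no signal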
# The depositor's hits bear a star; i = inactive; ? = inconclusive; nt = not tested or not shown; & = joins results of further samples.
SMILES,Vif TR-FRET,rRNA inh HTS,rRNA inh HTS OD600,rRNA inh HTS RFP,HNF4A DNA FP,Ecoli growth,AF4-AF9 inh,ALR inh,FGF22 binding
CCC(=O)N1CC2(C1)[C@@H](c1ccc(-c3ccc(F)cc3)cc1)[C@H](CO)N2C(C)=O,nt,-2,-9,-0.7,nt,nt,1.5,nt,i
CCOC(=O)Cc1cc(C)[nH]c1C(=O)OCC,-12%,7,9,3.6,0.1,0.65,-3.9,-6,i
CN(C)CCNS(=O)(=O)c1ccc(Cl)cc1,13%,nt,nt,nt,-4.0,0.73,nt,22,nt
CCn1nc(C(=O)OCC(=O)NCCN2C(=O)CSC2=O)c2ccccc2c1=O,7%,nt,nt,nt,-5.9,0.71,nt,8,nt
COc1ccc(CNC(=O)c2cc3c(=O)n4ccccc4nc3n(Cc3cccnc3)c2=N)cc1,4%&4%,nt,nt,nt,4.1,0.64,-1.9,-2,nt
CCn1c(NCCO)nc2c(c1=O)C(C)(CC)Cc1ccccc1-2 (stereo not drawn),nt,-28*,-21*,-4.4*,2.0,0.66,-1.2,4,i
COC(=O)c1ccc(C2C(C(=O)OCC(C)C)=C(C)N=C3SCCC(=O)N32)cc1 (stereo not drawn),3%,nt,nt,nt,-1.8,0.73,nt,-14,nt
COc1ccc([C@H]2CC(=O)C=C(c3ccc(O)cc3)C2)cc1OC,nt,-30,-32,5.5,0.0,nt,7.7,19,i
CN(C)C(=O)C[C@@H]1CC[C@@H]2[C@@H](COc3ccc(NC(=O)C4CC4)cc3C(=O)N2C)O1,nt,2,8,-2.9,nt,nt,-1.0,nt,i
O=C(CCl)N1N=C(c2cccs2)CC1c1ccco1 (stereo not drawn),?,8,9,2.9,4.4,0.68,4.0,15,i
O=C(COc1ccc(F)cc1)c1c(O)cc(O)cc1O,9%,3,-5,9.1,3.9,0.66,6.4,22,i
O=C(CCSCCc1ccccn1)Nc1ccc(Cc2ccncc2)cc1,3%,1,-4,-1.2,-0.1,0.67,-11,-23,i
O=C(Nc1ccc2[nH]c(=O)[nH]c2c1)c1cc(F)c(F)cc1Cl,3%,-10,-1,-3.8,-1.8,0.67,-74,-6,i
O=C(COc1ccccc1)NCC(=O)Nc1ccc(S(=O)(=O)NCc2ccco2)cc1,-4%,nt,nt,nt,-2.1,0.74,nt,4,nt
CC(NC(=O)Nc1cccc(Cl)c1)C(c1cccs1)N1CCCC1 (stereo not drawn),-12%,-8,-7,-0.2,-2.1,0.66,4.3,8,i
C[C@@H]1CN([C@H](C)CO)C(=O)c2cc(NC(=O)CCC(F)(F)F)ccc2O[C@@H]1CN(C)Cc1ccc(Oc2ccccc2)cc1,nt,-2,-34,18,nt,nt,5.1,nt,i
CCC(C)N(C(=O)Cn1nc(C)c([N+](=O)[O-])c1C)C1CCS(=O)(=O)C1 (stereo not drawn),-2%,5,3,-0.7,4.5,0.67,-0.2,-4,nt
CCN(C(=O)c1cc2cc(OC)ccc2oc1=O)c1cccc(C)c1,5%,nt,nt,nt,2.0,0.73,nt,-31,nt
COc1ccccc1CNC(=O)C1CCC(CNC(=O)[C@@H]2Cc3ccccc3CN2)CC1 (stereo partly drawn),nt,2,-1,-0.2,0.1,0.63,-4.3,-8,i
CO[C@H]1CN(C)C(=O)c2ccc(NC(=O)c3cccc(F)c3)cc2OC[C@@H](C)N(C)C[C@H]1C,nt,-1,0,-1.8,nt,nt,1.4,nt,i
O=C(NCCN1CCOCC1)c1ccc2c(c1)N(Cc1ccccc1F)C(=O)c1ccccc1S2,-5%,-15,-5,25,0.0,0.69,2.5,-5,i
CO[C@H]1CN(C)C(=O)c2cc(NC(=O)NC3CCCCC3)ccc2OC[C@H](C)N(CC2CC2)C[C@H]1C,nt,4,12,-2.0,nt,nt,0.4,nt,i
CCOC(=O)c1ccccc1NC(=O)COC(=O)CCC(=O)c1ccc(C)cc1,-2%,-1,-5,-1.6,-2.9,0.68,-5.5,0,i
C=CCN(C(=O)CNC(=O)c1ccco1)C(C(=O)NC1CCCCC1)c1cccnc1 (stereo not drawn),nt,6,-1,-3.6,-1.8,0.66,-1.3,-7,i
CCOc1ncccc1C(=O)OCC(=O)NCCc1ccc(OC)cc1,-2%,nt,nt,nt,-1.2,0.73,nt,-1,nt
COc1ccccc1CNC(=O)CCS(=O)(=O)c1cccc2nonc12,27%,nt,nt,nt,-0.4,0.74,nt,45,nt
CC(C)C#Cc1ccc2c(c1)O[C@H](CN(C)C)[C@H](C)CN([C@H](C)CO)S2(=O)=O,nt,3,13,-3.7,nt,nt,-3.6,nt,i
O=C(O)c1cccc(S(=O)(=O)N2CCc3ccccc3C2)c1,4%,-5,-6,-1.1,-0.7,0.6,-0.8,2,i
C[C@H](CO)N1C[C@H](C)[C@H](CN(C)CC2CCCC2)Oc2ncc(-c3ccc(F)cc3)cc2C1=O,nt,6,1,-0.9,nt,nt,-4.2,nt,i
CN(CC(=O)Nc1ccccc1C(F)(F)F)C(=O)CSc1nnnn1C,10%,11,21,7.3,-4.2,0.64,-12,-6,i
CCN(CC)Cc1nc2c(c(=O)[nH]1)C1(CCCCC1)Cc1ccccc1-2,-2%,-7,-7,4.3,0.3,0.69,2.4,0,i
N/C(Cc1cccc2ccccc12)=N\OC(=O)Cc1cccs1,28%,nt,nt,nt,4.0,nt,nt,-11,nt
Oc1ccc2ccccc2c1C=Nc1ccccc1-c1nc2ccccc2[nH]1,4%,nt,nt,nt,-2.3,0.68,nt,14,nt
CN(CC(=O)Nc1cccc(F)c1)CC(=O)Nc1ccc(Cl)cc1[N+](=O)[O-],-6%,-1,1,1.0,1.5,0.67,-1.0,-14,i
COc1ccc(OCC(=O)Nc2cccc(S(=O)(=O)N(C)c3ccccc3)c2)c([N+](=O)[O-])c1,-8%,nt,nt,nt,-2.3,0.71,2.9,-1,i
COc1ccc(CCCNC(=O)C2Cc3c(-c4cccc(NC(C)=O)c4)ccnc3O2)cc1 (stereo not drawn),nt,-5,-17,-2.7,1.3,nt,-3.0,nt,i
Cc1ccccc1Nc1cccc2nonc12,nt,-40*,-16*,-4.6*,10,0.68,-3.1,61,i
Cc1ccc(S(=O)(=O)NCC[C@@H]2CC[C@@H](NS(=O)(=O)c3ccccc3Cl)[C@H](CO)O2)cc1,nt,-5,-9,2.4,nt,nt,-0.9,nt,i
CCCNC(=O)C[C@H]1CC[C@H]2[C@@H](COC[C@H](O)CN2CC2CCCCC2)O1,nt,4,21,-2.8,nt,nt,-3.3,nt,i
O=[N+]([O-])c1ccc(S(=O)(=O)Nc2ccccn2)cc1,2%,16,14,0.9,3.8,0.67,-8.8,-63,i
COc1ccc(NC(C)=O)cc1S(=O)(=O)N1CC=C(c2ccccc2)CC1,nt,6,6,-0.4,-3.0,0.74,-4.9,-4,i
O=C(c1cc(-c2ccncc2)nc2ccc(Cl)cc12)N1CCN(C(=O)C2CCCO2)CC1 (stereo not drawn),?,nt,nt,nt,-3.4,0.74,nt,nt,nt
Cc1nn(-c2ccccc2)nc1C(=O)Nc1ccccc1C(=O)NCC1CC1,nt,6,2,-6.0,nt,nt,-0.6,nt,i
Cc1c(OC(C)C(=O)NCCCn2ccnc2)ccc2c3c(c(=O)oc12)CCC3 (stereo not drawn),nt,-1,2,-0.5,-0.9,0.69,1.5,3,i
CN(C)CC(C)(C)CN=Cc1c(O)[nH]c2ccccc12,5%,1,1,-3.2,1.1,0.66,-30,99*,i
NC(=O)C1CCN(C(=O)CCNS(=O)(=O)c2ccccc2F)CC1,1%,3,5,-1.9,1.5,0.64,-2.7,-6,i
Cn1c(=O)[nH]c2nnc(-c3ccc(Cl)c(Cl)c3)nc2c1=O,32%,18,10,5.8,-3.0,0.65,1.1,-9,i
O=C(CN1CCOCC1)NC1C2CC3CC(C2)CC1C3 (stereo not drawn),-2%,nt,nt,nt,6.4,0.64,nt,-4,nt
COc1ccc(CC(=O)Nc2ccccc2NC(=O)Cc2ccc(OC)cc2)cc1,-5%,-1,-1,2.8,2.0,0.65,-1.2,-4,i
C[C@H](CO)N1C[C@H](C)[C@H](CN(C)Cc2ccccc2)Oc2c(NC(=O)c3nc4ccccc4s3)cccc2C1=O,nt,-5,-30,-5.0,nt,nt,15,nt,i

# Further records follow.
SMILES,Vif TR-FRET,rRNA inh HTS,rRNA inh HTS OD600,rRNA inh HTS RFP,HNF4A DNA FP,Ecoli growth,AF4-AF9 inh,ALR inh,FGF22 binding
COc1ccccc1N1CCN(Cc2cc(=O)c(OCC(=O)Nc3ccccc3)co2)CC1,2%,4,10,-0.3,-1.0,0.66,-0.5,nt,i
CC(C)(C)NC(=O)CCN(/N=C/c1ccccc1F)C1=NS(=O)(=O)c2ccccc21,nt,15,10,5.0,2.0,nt,-0.4,3,i
Cc1ccc(C(=O)C2CCN(CC(=O)N3CCN(c4ccc(F)cc4)CC3)CC2)cc1,-1%,-12,-29,19,1.3,0.63,-2.3,26,i
CCNC(=O)C[C@H]1CC[C@@H]2[C@H](COc3ccc(NC(=O)c4cccc(OC)c4)cc3C(=O)N2C)O1,nt,0,6,0.2,nt,nt,-2.0,nt,i
Cc1ccc(NC(=O)CNc2cccc(Br)c2)cc1S(=O)(=O)N1CCOCC1,nt,-7,-11,2.3,-0.3,0.68,-1.2,nt,i
C[C@@H]1CCCCO[C@H](CN(C)S(C)(=O)=O)[C@@H](C)CN([C@@H](C)CO)C(=O)c2cc(NS(=O)(=O)c3cn(C)cn3)ccc2O1,nt,1,6,0.5,nt,nt,-2.5,nt,i
COc1ccc(NC(=O)Nc2ccc3c(c2)C(=O)N([C@H](C)CO)C[C@H](C)[C@@H](CN(C)Cc2ccccc2)OCCCC[C@@H](C)O3)cc1,nt,2,1,-0.5,nt,nt,-0.1,nt,i
CCCCCCN1C[C@@H](n2cc(C3CC3)nn2)[C@H](O)C[C@@H]1c1ccc(Cl)cc1,-5%,-13,-26,1.6,-1.6,nt,-2.4,nt,i
COc1ccccc1NC(=O)N1CCN(c2ccc3nncn3n2)CC1,1%,1,12,-1.8,-2.0,0.76,-0.5,nt,i
COCCN(C[C@@H]1[C@@H](c2ccccc2)[C@H](CO)N1C(C)=O)C(=O)c1ccncc1,nt,4,14,-1.9,nt,nt,0.6,nt,i
Cc1ccc(-c2[nH]c3ccccc3c2SCCNC(=O)c2cc3ccccc3oc2=O)cc1,24%,4,15,-0.2,-1.6,0.8,-5.1,20,i
O=C(NCc1ccco1)c1ccc2c(c1)N(Cc1ccccc1)C(=O)CS2=O (stereo not drawn),3%,-4,-13,7.3,1.1,0.77,1.4,-4,i
C[C@@H]1CN([C@@H](C)CO)C(=O)c2cc(NC(=O)Nc3ccc(F)cc3)ccc2O[C@H]1CN(C)Cc1ccc2c(c1)OCO2,nt,-3,-17,2.3,nt,nt,8.1,nt,i
CCN(CC)c1ccc(NC(=O)OC)cc1,25%,10,6,-1.0,6.6,0.72,nt,91*,nt

# Some of the compounds tested, so the mix of outcomes need not match the whole.
